Env fusion inh = blocks HIV Env-driven cell-cell fusion; HeLa-JRFL Env/CEM21 cell fusion, luciferase; inhibition, % at 12.3 µM; actives 1.1% (n = 360,000);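 active = mean replicate inhibition score of at least 50 and every replicate individually at or above 50; inconclusive = only one of the two criteria met; inactive = mean below 50 and not all replicates reaching 50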;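 note: 0% = plate neutral controls and 100% = maraviroc near 300 nM; one replicate is shown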
UUG fidelity = yeast start codon fidelity modulation | S. cerevisiae UUG-firefly luciferase reporter, luminescence/redox ratio | activity score, % at 18.7 µM | actives 0.13% (n = 350,000) | AID 602363;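 active = replicate mean at a twofold rise or more, about +100% in these data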;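 note: firefly luciferase made from a UUG start codon reports start codon fidelity; reporter light over untreated wells divided by growth signal over untreated wells; some hits fall short of that in this replicate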
Rce1 inhib = inhibitors of yeast Ras-converting enzyme | actives 0.27% (n = 290,000) | AID 2563 | yeast membranes, quenched prenylated peptide cleavage fluorescence | calls only;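 active = fall in fluorescence gain of 50% or more versus controls, with final raw signal at or below 3038400; inconclusive = same 50% fall but final raw signal above 3038400; inactive = fall in fluorescence gain under 50%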;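 note: plate controls were neutral control wells for no effect and wells lacking membranes for full effect; tested at 10 µM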
eIF4H inh = inhibitors of RNA binding by human eIF4H; AID 2012; Q15056; actives 0.94% (n = 290,000); eIF4H fluorescence polarization binding assay; inhibition, % at 35 µM;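 active = 50% or more with normal probe brightness, or confirmed in later tests; inconclusive = above 50% with abnormal brightness, or retests that disagree; inactive = below 50% or failed in later tests; about a fifth of its hits are not listed in these tables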;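 note: calls also rest on retests at 20 µM and on dose response follow-up; 0% = protein and probe with vehicle and 100% = probe without protein; strong numbers were not always called active; many hits fall short of the cut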
PABP FP inh = blocks human PABP binding to poly(A) RNA; inhibition, % at 35 µM; fluorescence polarization; P11940; actives 1% (n = 290,000);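 active = 50% or more with normal probe brightness, or confirmed in later tests; inconclusive = above 50% with abnormal brightness, or retests that disagree; inactive = below 50% or failed in later tests; about a fifth of its hits are not listed in these tables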;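 note: calls also rest on retests at 20 µM and on dose response follow-up; controls were probe without protein and protein plus probe with vehicle; some compounds called inactive have numbers as strong as hits; many hits fall short of the cut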
Target sequence (P11940 whole entry, looked up): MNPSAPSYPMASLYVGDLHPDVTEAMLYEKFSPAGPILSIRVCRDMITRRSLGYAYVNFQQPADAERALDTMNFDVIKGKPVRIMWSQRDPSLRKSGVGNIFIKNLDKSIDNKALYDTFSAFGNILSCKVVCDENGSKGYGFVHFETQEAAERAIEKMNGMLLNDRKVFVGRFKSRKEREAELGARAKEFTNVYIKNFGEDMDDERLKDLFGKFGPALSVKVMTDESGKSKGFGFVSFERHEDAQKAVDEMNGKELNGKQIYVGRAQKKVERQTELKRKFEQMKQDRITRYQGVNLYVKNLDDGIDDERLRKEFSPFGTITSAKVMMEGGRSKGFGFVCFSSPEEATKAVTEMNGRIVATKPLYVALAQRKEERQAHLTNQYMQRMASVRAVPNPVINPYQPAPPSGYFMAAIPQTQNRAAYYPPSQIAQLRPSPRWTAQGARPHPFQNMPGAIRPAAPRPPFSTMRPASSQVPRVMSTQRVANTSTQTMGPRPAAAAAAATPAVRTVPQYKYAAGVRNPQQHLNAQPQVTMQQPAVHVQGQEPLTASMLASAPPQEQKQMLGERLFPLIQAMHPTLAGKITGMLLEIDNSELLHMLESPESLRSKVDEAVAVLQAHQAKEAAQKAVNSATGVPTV
MT1-MMP act inh = MT1-MMP (human) activation inhibition | P50281 | HT1080 RFP-PRO-GFP cells, GFP/RFP ratio fluorescence, overnight; percent of plate control window, DMSO zero | GFP/RFP ratio change, % at 20 µM | actives 0.061% (n = 360,000) | AID 651647;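 active = GFP/RFP ratio change of at least 30% with cell ATP level not reduced by more than half and red fluorescence within 50% of control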; note: strong numbers were not always called active
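Test system: HT1080 cells expressing an RFP-PRO-GFP fluorescent reporter construct / Compound dosing: single-point 20 µM compound, 1% DMSO / Schedule: cells overnight before dosing, compound overnight, 37 °C, 5% CO2 / Evaluation: GFP/RFP fluorescence ratio / Control set: DMSO and RFP-L50D-GFP cell wells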
CSC inhib = cancer stem cell inhibition; cancer stem cell-like cells viability, luminescence; inhibition, % at 7.5 µM; actives 1.1% (n = 300,000); AID 2717;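 active = mean at 75% or more and at least half the replicates too; inconclusive = mean and replicates disagree; tested in HMLE shEcad cells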;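 note: 0% = median of negative and 100% = median of positive control wells; the first replicate is given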
eIF4H inh retest = second read-out of eIF4H inh, no call of its own (marks repeat the call); inhibition, %; compound at 20 µM; confirmation average;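 mean of two retest wells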
PABP FP inh retest = further read-out of PABP FP inh, marked with its call; inhibition, %; compound at 20 µM; confirmation repeats;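 mean of two retest wells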
MT1-MMP act inh RFP = also measured in MT1-MMP act inh; calls as there; RFP signal change, %; measured here: RFP expression control read;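 0 = vehicle wells; hits needed this value within 50% of zero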
* hit, by the source's call; i = inactive; ? = inconclusive; . = not tested or not shown; & = joins results of further samples; [ ] = remark or other dose. Only part of the results is shown; the hit share may differ from the screen's.

SMILES	Env fusion inh	UUG fidelity	Rce1 inhib	eIF4H inh	PABP FP inh	MT1-MMP act inh	MT1-MMP act inh RFP	CSC inhib	others
Nc1nc(SCC(=O)NCCC(c2ccccc2)c2ccccc2)n[nH]1	.	3	i	-2	-3	.	.	-6
CCN1CCN(CCc2nc3cc([N+](=O)[O-])ccc3n2C)CC1	2	-19	i	55	21	4	8	-9	eIF4H inh retest=22;PABP FP inh retest=23
COc1ccccc1CNC(=O)COc1ccc(Br)c(C)c1	12	13	i	-5	-1	2	-3	32
CC(C)OCCCNC(=O)CCC(=O)NNc1nc2ccccc2c2nc(-c3ccccc3)nn12	10	.	i	5	-8	5	1	11
O=C(NC1CCCCC1)C(c1ccc(F)cc1)N(Cc1ccco1)C(=O)c1ccccn1 (stereo unspecified)	17	.	i	36	52	-3	-1	-15	eIF4H inh retest=-5;PABP FP inh retest=6
COc1cc(C#Cc2ccc3cc(C(C)(C)O)oc(=O)c3c2)cc(OC)c1	-14	-1	.	.	.	-7	-3	-5
COC(=O)C1CCc2c(ccc3c2CCCC3)C1=O (stereo unspecified)	-19	-25	.	.	.	-5	-1	.
CCOC(=O)C1=CCN(S(=O)(=O)c2cccc(Cl)c2)C1c1ccc(F)cc1 (stereo unspecified)	8	-5	.	.	.	4	1	.
COC(=O)C(C)Sc1nnc(-c2ccncc2)o1 (stereo unspecified)	-22	-16	i	-5	7	1	4	-7
CCc1noc(C)c1C(=O)N(CC)CC(=O)Nc1cc(Cl)ccc1C	.	-6	.	.	.	1	0	-6
CC(C)(C)Nc1nc(OCC(F)(F)F)nc(OCC(F)(F)F)n1	?	-15	i	2	-13	6	6	1
Cc1nc(SCC2(C)CC2(Cl)Cl)n[nH]1 (stereo unspecified)	-12	.	i	0	-8	2	-1	0

Continued (2 carried over from the part before).
SMILES	Env fusion inh	UUG fidelity	Rce1 inhib	eIF4H inh	PABP FP inh	MT1-MMP act inh	MT1-MMP act inh RFP	CSC inhib	others
CC(C)(C)Nc1nc(OCC(F)(F)F)nc(OCC(F)(F)F)n1	?	-15	i	2	-13	6	6	1
Cc1nc(SCC2(C)CC2(Cl)Cl)n[nH]1 (stereo unspecified)	-12	.	i	0	-8	2	-1	0
Cc1nn(CC(=O)NCCCc2ccccc2)c(=O)c2cccn12	.	3	i	-7	3	-2	4	3
COc1cc(CCCN2CCNC[C@H]2Cc2ccc(O)cc2)cc(OC)c1OC	-7	-12	i	.	.	-5	-3	6
Cc1cccc(C(=O)NNC(=O)c2ccccc2O)c1	-8	-7	i	9	-2	5	1	4
CCOC(=O)c1c(NC(=O)CSc2nnc(Cc3ccccc3)o2)sc(C)c1C	.	-12	i	-4	5	3	2	8
Cn1c(=O)n(C)c2cc(NS(=O)(=O)c3ccc4c(c3)CCCC4)ccc21	-10	-7	i	-6	0	20	-9	6
S=c1[nH]nc(CNc2ccc(Cl)cc2)n1Cc1ccccc1	4	.	i	-8	3	6	6	-2
O=C(Cc1ccc(-n2cccc2)cc1)NCc1ccccc1Cl	31	.	i	-11	8	-6	-10	58
Cc1cccc(C(=O)Nc2oc(-c3ccccc3)cc2C#N)c1	.	-17	i	20	3	-4	-12	3
C#CCOCCOCCOCCNc1nc(N2CCN(C(=O)[C@H](Cc3ccc(O)cc3)n3cc(C(N)CC(C)C)nn3)CC2)nc(N2CCN(C(=O)[C@H](CCC(=O)O)n3cc(C(N)[C@H](C)CC)nn3)CC2)n1 (stereo partly specified)	.	-16	i	-6	3	-1	0	-16
COc1ccc(-n2c(CN3CCOCC3)nc3ccc([N+](=O)[O-])cc3c2=O)c(OC)c1	2	-14	i	7	-6	0	3	-1
Cc1ccc(-c2nnc(CSc3nc4cc5c(cc4cc3C)OCO5)o2)cc1	13	.	i	-3	-2	2	3	-3
COc1ccc(S(=O)(=O)Nc2cccc3c2O[C@H](CN(C)Cc2ccc(Cl)c(Cl)c2)[C@@H](C)CN([C@H](C)CO)C3=O)cc1	-4[16.7 µM]	16&-7	.	.	.	11	-7	.
C=CCNC(=S)/C(=C(/[O-])c1ccccc1Br)[n+]1ccccc1	3	-8	i	7	20	3	5	1
O=S(=O)(c1ccc(S(=O)(=O)N2CCN3CCCC3C2)cc1)N1CCCC1 (stereo unspecified)	.	-3	i	11	-3	15	3	-4
CCOc1cc(S(=O)(=O)n2ccc(C)n2)ccc1Br	1	-9	i	1	8	1	3	5
CSCCC(NC(=O)c1ccco1)C(=O)Nc1ccc(C)cn1 (stereo unspecified)	-16	-5	i	.	.	1	4	23
Cc1cc(C)nc(SCc2cn3c(C)cccc3n2)n1	2	20	i	-7	-4	-1	1	-13
C[C@H]1CN([C@@H](C)CO)S(=O)(=O)c2ccc(Br)cc2O[C@@H]1CN(C)Cc1ccccc1	29&5[16.7 µM]	-14&-5&-1	.	.	.	-2	-3	.
O=C(NCC1CCCO1)c1cc2nc(-c3ccco3)cc(C(F)(F)Cl)n2n1 (stereo unspecified)	5	-6	i	83*	53*	2	4	15
Cc1cccc(Cn2nc(C(C)(C)C)cc2C(=O)Nc2ccc(F)cc2)c1	-109	-4	i	6	-3	-5	-10	70
CCn1c(=O)c([N+](=O)[O-])c(NCC2CCCO2)c2ccccc21 (stereo unspecified)	17	2	i	-3	0	4	0	-10
Cc1ccc(-n2c(SCC(=O)NCc3ccc4c(c3)OCO4)nnc2-c2cccnc2)c(C)c1	-41	-44	i	-1	-8	-5	1	.
CN(CC(=O)Nc1ccccc1C(F)(F)F)C(=O)c1ccccc1Sc1ccccc1C#N	7	-2	.	.	.	3	2	-25
O=C1NC(=Nc2ccccc2)SC1Cc1ccccc1 (stereo unspecified)	-10	.	i	-7	-5	3	4	-7
CNC(=O)COC(=O)c1cc(SC)ccc1Cl	-5	.	i	1	-16	1	4	7
CC(C)(C)C(=O)NC(NC(=S)Nc1sc2c(c1C#N)CCCC2)C(Cl)(Cl)Cl (stereo unspecified)	-138	-18	i	-4	-4	-1	-5	.
O=C(COc1ccccc1O)N1CCN(C(=O)c2ccco2)CC1	.	-15	i	2	21	3	6	-21
O=C(NCc1ccco1)c1cccc(Nc2nc3ccc(Br)cc3[nH]2)c1	-24	-2	i	-5	-17	2	-2	31
O=C1C2C3C=CC(C3)C2C(=O)N1c1cccc(N2C(=O)C3C4C=CC(C4)C3C2=O)n1 (stereo unspecified)	.	-3	i	9	9	2	1	.
COCC1=C(C(=O)OC)C(c2cccs2)n2ncnc2N1 (stereo unspecified)	0	.	i	-2	-4	5	1	-12
Cc1ccc(C(C(=O)NC(C)(C)C)N(C(=O)c2csnn2)c2ccccc2F)o1 (stereo unspecified)	22	-15	i	-1	0	2	0	-18
CC#C[C@@H](CC)c1ccc2ccn(C)c2c1	-13	-20	.	.	.	0	2	4
CC(=O)NCCC1CCCCN1Cc1nc(Cc2cccc(C(F)(F)F)c2)no1 (stereo unspecified)	8	.	i	5	-4	-2	-2	1
Cc1cc(C)nc(SCc2ccc([N+](=O)[O-])cc2)n1	2	.	i	0	10	-3	3	7
COc1cc(NC(=O)c2ccco2)c(OC)cc1NC(=O)Nc1ccccc1Cl	.	-6	i	1	-3	11	7	-6
COc1ccc(NC(=O)N(C)C[C@H]2Oc3ncc(Br)cc3C(=O)N([C@H](C)CO)C[C@@H]2C)cc1	15	-6&0	.	.	.	1	3	.
COc1ccc(OC)c(C(=O)N(C[C@H]2CC[C@@H]([C@@H]3CC[C@H](CO)O3)O2)C(C(=O)NC(C)(C)C)c2ccc(-c3ccccc3)cc2)c1 (stereo partly specified)	-6	9	.	.	.	5	1	.
O=C1N2CCSC2=NC1(Nc1nccs1)C(F)(F)F (stereo unspecified)	.	-10	i	4	-12	5	3	.
Cc1ccc(S(=O)(=O)Nc2ccc(O)c3ncccc23)cc1	-21	-32	i	17	-3	0	-15	29
CCCCCN(C(=O)CCC(=O)OCc1cc(C)ccc1C)c1c(N)n(CCCC)c(=O)[nH]c1=O	-31	11	i	.	.	-15	-11	6
COC(=O)C1=NNC2(c3ccc(Cl)cc3)C(=O)N(c3ccccc3)C(=O)C12 (stereo unspecified)	5	-12	i	1	2	-1	-8	-1
COc1ccc(/C=N/NC(=O)c2ccncc2)c(C(=O)O)c1OC	2	.	i	-2	0	2	7	0
CCOC(=O)/C=c1\s/c(=C\c2ccc(-c3ccccc3)cc2)c(=O)n1CC(=O)NCc1ccc2c(c1)OCO2	-10	-4	i	17	7	3	1	8
C=CCNC(=S)NCc1cccnc1	-9	.	i	2	9	6	7	1
COc1ccc(C(=O)Nc2ccc(NC(=O)c3ccco3)c(Cl)c2)cc1OC	.	-1	i	0	-5	-1	3	9
COc1ccc(S(=O)(=O)N(CC(=O)NCc2cccnc2)C2CCCCC2)cc1OC	12	-17	i	-3	-2	0	2	-4
O=C(Nc1ccc(Cl)c(Cl)c1)OCc1cnc(Cl)s1	.	-10	i	-2	2	.	.	42
COc1ccc(C(N)c2csc(Nc3ccc(C(=O)c4ccccc4)cc3)n2)cc1 (stereo unspecified)	2	5	.	.	.	-7	-5	.

Next part, starting with the last three of the part before.
SMILES	Env fusion inh	UUG fidelity	Rce1 inhib	eIF4H inh	PABP FP inh	MT1-MMP act inh	MT1-MMP act inh RFP	CSC inhib	others
COc1ccc(S(=O)(=O)N(CC(=O)NCc2cccnc2)C2CCCCC2)cc1OC	12	-17	i	-3	-2	0	2	-4
O=C(Nc1ccc(Cl)c(Cl)c1)OCc1cnc(Cl)s1	.	-10	i	-2	2	.	.	42
COc1ccc(C(N)c2csc(Nc3ccc(C(=O)c4ccccc4)cc3)n2)cc1 (stereo unspecified)	2	5	.	.	.	-7	-5	.
Cc1ccc(N2CN(S(=O)(=O)c3cccc([N+](=O)[O-])c3)c3nc4ccccc4nc32)cc1	-7	-10	i	9	6	12	-4	37
O=C(NCC1CC1)c1ccc2c3n(nc2c1)-c1ccccc1CO3	-166	-58	i	0	-3	6	3	16
O=S(=O)(Nc1cccnc1)c1cccc(C(F)(F)F)c1	-3	-14	i	-12	-4	11	2	-4
CC(C)Oc1ccc(C(=O)NCCCNC(=O)c2cccnc2)cc1	-9	-9	i	-12	8	-2	2	2
Cn1c(SC/C=C/c2ccccc2)nnc1-c1ccco1	.	.	i	-2	-8	-5	-3	-3
O=C1OCCC1Sc1nc2cc(Cl)ccc2n1Cc1ccccc1 (stereo unspecified)	.	.	i	0	3	6	2	-13
Cc1ccc(CNC(=O)C23CN(Cc4ccccc4)CC2C(c2ccc([N+](=O)[O-])cc2)=NO3)o1 (stereo unspecified)	-1	-17	i	-4	0	-3	-1	-8
CCCOc1ccc(-c2nnc(-c3ccncc3)o2)cc1	-77	-27	.	-1	-8	7	-8	-7
CC(CC(=O)N(C)C1CCCCC1)S(=O)(=O)c1ccc2c(c1)NC(=O)CO2 (stereo unspecified)	0	10	i	-3	0	-4	-1	3
O=C(Nc1ccc(OC(F)(F)F)cc1)c1ccccc1-n1cnnn1	.	-4	.	.	.	2	-2	-12
CCN(CC)CP(=O)(c1ccccc1)c1ccccc1	.	-11	i	-8	-3	2	4	0
N#Cc1ccc(C23OCCN2CCn2c3c3ccccc3[n+]2[O-])cc1 (stereo unspecified)	17	6	.	.	.	-12	-2	-9
COc1ccc(Cl)cc1S(=O)(=O)N(C)CC(=O)N1CCCC1	6	-7	i	1	-6	-5	1	-15
COc1ccccc1OCc1ccc(C(=O)Nc2ccccc2)cc1	-52	7	.	.	.	2	-11	1
